# Bioassay records: PubChem, Broad Institute
# Tg IFNy HTS: T. gondii growth inhibition under IFN-gamma; Toxoplasma gondii growth in IFN-gamma-treated host cells; active compounds read low; reference of the scale not given here; activity change, negative = inhibition, %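 (about 20 µM by stock and volumes)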; actives 3.8% (n = 69,000);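 active = below -70%; inconclusive = fit judged invalid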;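 note: host cells are HeLa cells infected with Toxoplasma gondii; parasite growth read as luciferase light; one replicate is shown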
# * hit, by the source's call; i = inactive; ? = inconclusive; & = joins results of further samples.
SMILES,Tg IFNy HTS
COc1ccc2c3c(n(C)c2c1)[C@@H](CO)N(S(C)(=O)=O)CC31CCN(C(=O)c2ccccn2)CC1,-69
CN(CC1(CO)CCOCC1)c1nc(C2CCCC2)nc2c1CNC2,-6
Cc1ccc(NC(=O)CC(=O)N2Cc3ccccc3CC2C(N)=O)cc1 (stereo not drawn),0
CNS(=O)(=O)c1ccc(CN2CCCC(CCc3ccc(F)cc3)C2)cc1 (stereo not drawn),-12
Cc1cccc(-c2nc(Cn3c(=O)c4c(C)cc(C)nc4n(-c4ccccc4)c3=O)c(C)o2)c1,2
COc1cccc(Oc2c(F)c(F)c(Oc3cccc(OC)c3)c(F)c2F)c1,-22
COc1ccc(NC(=O)c2ccc(S(=O)(=O)NCc3ccco3)cc2)cc1,-12
CS(=O)(=O)N1CCCC(Cc2cnc(Br)cn2)CC1 (stereo not drawn),6
COCCN1C2COCC1CN(S(=O)(=O)c1cn(C)cn1)C2,1
C[C@H]1CN([C@@H](C)CO)S(=O)(=O)c2ccc(-c3ccc(F)cc3)cc2O[C@H]1CN(C)Cc1ccccc1C(=O)O,0
CCS(=O)(=O)N1CCOCC2(CC(CN(C)C)CO2)C1 (stereo not drawn),i
CCCNC(=O)N[C@H]1C=C[C@H](CC(=O)N2CCN(C)CC2)O[C@@H]1CO,74
CCc1ccccc1-c1nccn1CCN(C)C,-50
Cn1ccnc1CN1CCC2(CC1)CN(CC#N)c1ccccc12,-3
C[C@@H]1CCn2cc(nn2)COC[C@@H](Cc2ccccc2)NC1=O,-39
CCC(C)NC(=O)c1nc(Nc2ccc(C)cc2)c2ccccc2n1 (stereo not drawn),-36
Cc1noc(C)c1NC(=O)Nc1ccc2c(c1)C(=O)N([C@@H](C)CO)C[C@@H](C)[C@@H](CN(C)S(=O)(=O)c1cccs1)OCCCC[C@H](C)O2,i
Cc1ccc(OCC(O)C(C)NC(C)C)c2c1CCC2 (stereo not drawn),15
CCC(=O)Nc1ccc2c(c1)CCC(=O)N2CC(C)C,13
Cc1ccsc1C(=CCCN1CCC[C@@H](C(=O)O)C1)c1sccc1C,12&13
CCc1ccc(NC(=O)C2=C(C)C(=O)OC23CCN(CC)CC3)cc1,i
Cc1ccc(C2OCC3(CO)COC(c4ccc(C)cc4)N23)cc1 (stereo not drawn),10
O=C(C1CCCO1)N1CCC(NCc2csc3c2CCCC3)CC1 (stereo not drawn),0
CCOc1ccc(-c2nc(Cn3nnc(C(=O)Nc4ccccc4)c3C)c(C)o2)cc1,-55
COc1ccc2c3c(n(C)c2c1)[C@@H](CO)N(C(=O)Nc1cccc(F)c1)CC31CN(Cc2nccs2)C1,24

# A second format for some results above:
CCCNC(=O)N[C@H]1C=C[C@H](CC(=O)N2CCN(C)CC2)O[C@@H]1CO
  Tg IFNy HTS = 74
CCc1ccccc1-c1nccn1CCN(C)C
  Tg IFNy HTS = -50
Cn1ccnc1CN1CCC2(CC1)CN(CC#N)c1ccccc12
  Tg IFNy HTS = -3
C[C@@H]1CCn2cc(nn2)COC[C@@H](Cc2ccccc2)NC1=O
  Tg IFNy HTS = -39

# In another format: results already given
molecule | Tg IFNy HTS
COc1ccc2c3c(n(C)c2c1)[C@@H](CO)N(S(C)(=O)=O)CC31CCN(C(=O)c2ccccn2)CC1 | -69
CN(CC1(CO)CCOCC1)c1nc(C2CCCC2)nc2c1CNC2 | -6
Cc1ccc(NC(=O)CC(=O)N2Cc3ccccc3CC2C(N)=O)cc1 (stereo not drawn) | 0
CNS(=O)(=O)c1ccc(CN2CCCC(CCc3ccc(F)cc3)C2)cc1 (stereo not drawn) | -12

# A second format for five compounds above.
Structure	Tg IFNy HTS
COc1cccc(Oc2c(F)c(F)c(Oc3cccc(OC)c3)c(F)c2F)c1	-22
Cn1ccnc1CN1CCC2(CC1)CN(CC#N)c1ccccc12	-3
COc1ccc2c3c(n(C)c2c1)[C@@H](CO)N(C(=O)Nc1cccc(F)c1)CC31CN(Cc2nccs2)C1	24
COCCN1C2COCC1CN(S(=O)(=O)c1cn(C)cn1)C2	1
Cc1ccsc1C(=CCCN1CCC[C@@H](C(=O)O)C1)c1sccc1C	12&13

# Next section
SMILES,Tg IFNy HTS
CCn1c(SCC(=O)NCc2ccco2)nnc1-c1cccs1,-5
C[C@@H]1CCCCO[C@H](CN(C)C(=O)CCCN(C)C)[C@H](C)CN([C@@H](C)CO)C(=O)c2cc(NC(=O)Nc3ccc4c(c3)OCO4)ccc2O1,160
COc1ccc(-c2nccn2CCCN(C)C)c(OC)c1,-4
Cc1ccc(-c2cn[nH]c2C2CCCN(C(=O)c3ccc[nH]3)C2)cc1 (stereo not drawn),-92*
Nc1nc(Sc2cccs2)cc(N2CCOC(C(F)(F)F)C2)n1 (stereo not drawn),108
C=CCn1c2c(ccc1=O)CCN(Cc1ccc(F)cc1)CC2,-2
COc1ccc(-c2nc(-c3ccncc3)[nH]c(=O)n2)cc1,44
CC1(c2cccs2)NC(=O)N(Cc2ccccc2)C1=O (stereo not drawn),17
Cc1ccc(OCC(=O)Nc2ccc(-c3nc(-c4cc(C)ccc4C)co3)cc2)cc1,8
COc1ccc(Br)cc1-c1nc(Cn2nnc(C(=O)Nc3ccccc3Cl)c2C)c(C)o1,21
O=C(O)C1(Oc2cccc(N3CCOCC3)c2)CCOCC1,7
COc1ccccc1-n1cc(Cn2ccnc2-c2nc[nH]c2C)cn1,7
Cc1cc(C)n(C(=O)CCC(=O)Nc2cccc(Cl)c2C)n1,-4
CC(CCNS(=O)(=O)c1ccc2[nH]c(=O)ccc2c1)N1CCOCC1 (stereo not drawn),18
OCc1ccccc1-c1nc2ccccc2o1,-20
O=C1NCC2(CCCN(C(=O)Cn3c(C4CC4)nc4ccccc43)CC2)O1 (stereo not drawn),-8
CCOc1ccccc1NC(=O)N1CCN2C(=O)CN(C)C(=O)C2C1 (stereo not drawn),4
O=C1NCCN1CCNS(=O)(=O)c1ccc(S(=O)(=O)c2ccccc2)s1,54
CC(C)N(C)Cc1ncn2c1CN(C(=O)c1ccncc1F)CCC2,-25
Fc1cccc(-c2nnc(CN3CCCCC3CCN3CCOCC3)o2)c1 (stereo not drawn),3
COc1cccc(CNC(=O)c2cc3c(s2)CCN3C(=O)CN(C)C)c1,-6
NC(=O)CC[C@H](N)C(=O)O,22
Cc1nc2cc(C(=O)NC3(c4ccc5c(c4)OCO5)CCCC3)ccc2s1,-5
Cc1nn(CCC(=O)N2CC(CN3CCOCC3)c3ccccc32)c(C)c1C (stereo not drawn),51
Cc1cc(C)c2c(CC(=O)N3CCOC(C(F)(F)F)C3)coc2c1C (stereo not drawn),-4
SMILES,Tg IFNy HTS
COc1ccc(NC(=O)c2cncc(NS(=O)(=O)c3ccc(C)cc3C)c2)c(OC)c1,51
CCN1c2ncccc2C(=O)NC12CCN(C(=O)c1ccc(Cn3cccn3)o1)CC2,4
Cc1nnc(-c2coc(S(=O)(=O)N3CCC(N4CCCCC4)CC3)c2)o1,144
Cc1cc(C(=O)CSc2nnc(N)s2)c(C)n1-c1ccc(F)cc1,30
COc1ccccc1-c1ncc(C2NCCc3[nH]cnc32)cn1 (stereo not drawn),-5
CCN(Cc1ccccc1)C(=O)CCN1CCCN(C)CC1,-7
COCc1ccc(C(=O)N2CCN3C(=O)CCC32C)o1 (stereo not drawn),13
C=C1C(=O)O[C@@H]2/C=C(\C)CC/C=C(\C)CC[C@@H]12,26&21
Cc1ccc(S(=O)(=O)Nc2cccc3c2O[C@H](CN(C)C(=O)Nc2ccc(C(F)(F)F)cc2)[C@@H](C)CN([C@@H](C)CO)C3=O)cc1,16
COC(=O)c1cc(Cl)ccc1NC(=O)COc1nc(C)nc2ccccc12,-14
CN(C)C(=O)[C@@H]1[C@@H](CO)[C@@H]2Cn3c(ccc(C4=CCCC4)c3=O)[C@H]1N2S(=O)(=O)c1cn(C)cn1,4
Cc1cc2cc(C(=O)NCCSc3nnc(C)s3)ccc2o1,13
CCS(=O)(=O)N1C[C@@H]2OCCN(c3ccc(C)nn3)[C@H]2C1,-45
Clc1ccc(/C=C2\CCCC3C2=NNC3c2ccc(Cl)cc2)cc1 (stereo not drawn),-92*
Cc1c(Cl)cccc1NC(=O)Cn1cnc2c(cnn2-c2ccccc2Cl)c1=O,-35
Cn1cc(C(=O)OCC2CCN(CCNS(C)(=O)=O)CC2)c2ccccc21,-60&-7
CCn1cc(S(=O)(=O)NCc2ccc3[nH]c4c(c3c2)CCCC4)cn1,-6
C=C(C)c1cccc(C(C)(C)NC(=O)NC2CC(C)(C)NC(C)(C)C2)c1,-8
Cc1oc(C2CCN(C(=O)Nc3ccc(C(F)(F)F)cc3)CC2)nc1C(=O)N(C)C,-32
CC(C)(C)C(=O)C(Oc1ccc(Cl)cc1)n1ccnc1 (stereo not drawn),13&4
CC1c2cccn2CCN1Cc1cn(-c2ccccc2)nc1-c1ccc2c(c1)OCO2 (stereo not drawn),18
CC[C@@H]1Cn2c(c3nc(-c4ccccc4)nc-3n(C)c2=O)N1,19&6
CS(=O)(=O)CC(=O)N1CCN(C2Cc3ccccc3C2)CC1,-30
CCN(CC)C(=O)c1cc(=O)n(CC(=O)Nc2cccc(Br)c2)c2ccccc12,-12
OCC1(Cc2ccccc2F)CCCN(c2ccc3ccccc3n2)C1 (stereo not drawn),-31
SMILES,Tg IFNy HTS
C[C@@H]1CCCCO[C@H](CN(C)C(=O)c2ccncc2)[C@@H](C)CN([C@H](C)CO)C(=O)c2cc(NS(=O)(=O)c3cccs3)ccc2O1,76
O=C(NCc1ccc(F)cc1)[C@H]1C=CCN1C(=O)Nc1ccc(F)cc1,24
Cc1ncc(-c2cccc(C(=O)O)c2)[nH]1,48
COc1ccc2c3c(n(C)c2c1)[C@@H](CO)N(Cc1ccccc1)CC31CN(S(=O)(=O)c2ccc(C)cc2)C1,-68
Cn1nccc1-c1nc(NCc2ccccn2)ncc1-c1ccsc1,-93*
O=C(CCN1CCN2CCCCC2C1)N1c2ccccc2Sc2ccc(Cl)cc21 (stereo not drawn),-12
O=C(CN1C(=O)CCc2cc(S(=O)(=O)N3CCCC3)ccc21)Nc1ccc2c(c1)OCCO2,17
CN(C)CCn1cnc2nnc3ccc(C(=O)CCN4CCOCC4)cc3c21,-6
O=C(C[C@@H]1CC[C@H]2[C@@H](COC[C@@H](O)CN2S(=O)(=O)c2ccc(F)cc2)O1)NCCN1CCCCC1,-11
CO[C@H]1CN(C)C(=O)c2ccc(NS(C)(=O)=O)cc2OC[C@@H](C)N(C(=O)CN(C)C)C[C@@H]1C,132
NC[C@@H]1O[C@H](c2ccccc2)Cc2c1ccc(O)c2O,-6
Cc1nc(C(C)NC(=O)CSc2ncnc3sc(C)cc23)n[nH]1 (stereo not drawn),-15
COc1ccc(OC[C@H]2C3CCC(C3)N2C(=O)c2cnn(C)c2)cc1 (stereo partly drawn),46
COc1ccc(C(=O)N2CCC(C(=O)NCCc3csc(-c4ccccc4)n3)CC2)cc1,-14
O=C(CN1CCn2cnnc2C1)N1CCc2ccccc21,16
CCCc1c(C(=O)NCc2cc(F)cc3c2OCOC3)cnn1-c1ccccc1,?
O=C(COc1ccccc1)N1CCc2c([nH]c3ccccc23)C1c1ccc(F)cc1 (stereo not drawn),-64
Cc1nn(CC(=O)NCc2cccnc2)c(=O)c2nc(-c3ccccc3)sc12,107
O=C(Cn1ncc2c(N3CCCCC3)ncnc21)N1CCCCCC1,46
Cc1ccc(-c2cccc(C(=O)N(CCO)Cc3nccs3)c2)o1,-54
CS(=O)(=O)N(CCc1ccccc1)CC(=O)NCC1CCCO1 (stereo not drawn),-21
COc1ccc(NC(=O)Cn2c(=O)cc(C(=O)N3CCc4ccccc4C3)c3ccccc32)cc1OC,-4
CCOc1ccccc1CN(CC)Cc1cc(=O)n2c3c(cccc13)CCC2,-67
Cc1cc(C(C)(C)C)oc1C(=O)N1CCC(C(=O)c2nccs2)CC1,-47
C[C@H](CO)N1C[C@H](C)[C@H](CN(C)C(=O)Nc2ccc3c(c2)OCO3)OCc2ccccc2-c2c(n(C)c3ccccc23)C1=O,69
SMILES,Tg IFNy HTS
COCCCNc1nc(-c2ccc(OC)cc2)nc2ccccc12,-54
Cn1nc(-c2ccccn2)c2c1NC(=O)CC2Cn1c(=O)oc2ccccc21 (stereo not drawn),60
CC(=O)NCC(=O)N1Cc2cc(-c3ccn[nH]3)ccc2C1c1cnco1 (stereo not drawn),-4
COCC(=O)N1CC2(C1)CN(C(=O)NC1CCCC1)[C@@H](CO)c1c2c2ccc(OC)cc2n1C,-23
CC1(C(=O)N2CCn3cncc3C2)CCCCO1 (stereo not drawn),7
COCCO[C@@H]1CCN(C(=O)N2CCOCC2)[C@H]1Cc1ccccc1,1
COCC(=O)N1CC2(CN(Cc3ccccc3)C2)c2c(n(C)c3cc(OC)ccc23)[C@@H]1CO,45
O=S(=O)(NCc1ccccc1)Nc1ccc2nc[nH]c2c1,4
Cc1ccccc1-c1noc(CCC(=O)NCc2cc(C(C)(C)C)n[nH]2)n1,-9
O=C1CCCc2c1[nH]c1ccc(-c3ccccc3CO)cc21,-75*
O=C(c1cncc(N2C[C@@H]3[C@@H]4CC[C@@H](C4)[C@@H]3C2)n1)N1CCCC1,-10
O=C(Nc1ccc(N2CCCC2)c2nonc12)c1cccc(CN2CCCC2=O)c1,8
CCC(NC(=O)Cc1nonc1C)c1ccccn1 (stereo not drawn),7
CC(C)c1cccc(NC(=O)C[C@H]2CC[C@H]3[C@@H](COc4ccc(NC(=O)c5cnccn5)cc4C(=O)N3C)O2)c1,-28
COc1ccccc1C(=O)Nc1ccc(-c2nc(-c3ccc(C)cc3C)co2)cc1,-70
O=C(c1ccncc1)N1CCCC1c1nc(-c2ccccn2)cc(=O)[nH]1 (stereo not drawn),-30
CCOC(=O)c1nn(-c2cccc(Cl)c2)cc1C#N,31

# Only part of the results is shown; count on the stated rates, not on these rows.
